Sa RN4220 lethal: growth inhibition of S. aureus RN4220, primary screen, OD600. 16 h. inhibition, % (concentration not given with the values). 0.33% of 330,000 active;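 active = z-score of -3 or lower and OD600 up to 0.18 on both plates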;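 note: plate controls were untreated cells for no effect and reference antibiotic for full effect; stock transfer was 100 nL into about 80 µL; one replicate is shown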
Mtb hypoxia inh: PubChem AID 1159583 | M. tuberculosis hypoxia-regulated fluorescent reporter, fluorescence | 0.1% of 300,000 active | fluorescence inhibition, % (concentration not given with the values);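 active = 35 to 45% if threefold the growth effect, above 45% if 1.5-fold the growth effect; inactive = the rest, general growth blockers included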;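 note: wells of about 50 µL received 100 nL stock; 0% = vehicle wells and 100% = reference inhibitor wells; whole bacteria with a GFP reporter of the hypoxia response; strong numbers were not always called active; many hits fall short of the cut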
PrP UTR inh: inhibition of PrP 5' UTR reporter expression | cell-based PrP 5' UTR mRNA reporter, plate reader | inhibition, % (no concentration beside the values) | 0.35% of 340,000 active | AID 488862, 2010;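 active = every replicate at 50% or more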;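 note: 0 = median of the neutral control wells; tested in H4 reporter cells; numbers are from one replicate; inactives centre near -14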
Sa ugtP lethal: growth inhibition of ugtP-null S. aureus, primary screen, RN4220 ugtP deletion, OD600; 16 h; some inactives read as strong as hits; growth inhibition, % (no concentration beside the values); AID 1259309, 2017; 0.54% of 330,000 active;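 active = z-score under -3 and OD600 up to 0.15 on both plates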;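 note: plate controls were untreated wells for no effect and antibiotic for full effect; wells of about 80 µL received 100 nL stock; the first replicate is given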
Autofluor counter: compound fluorescence in toxin protease inhibitor counterscreen; compound autofluorescence counterscreen, microsphere flow cytometry; active compounds read high; fluorescence intensity (concentration not given with the values); 3.1% of 360,000 active;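 active = at least 3 SD above the mean of all compounds, about 16000 in these data; inconclusive = too few beads counted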;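 note: 100 nL of 1 mM stock went into each well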
BJeLR viability: MLPCN primary cell-based screen for lethality selective to Ras in HRASV12 cells; inhibition, % (no concentration beside the values); AID 1554, 2009; 0.17% of 300,000 active; BJeLR (HRASV12) viability, CellTiter-Glo ATP luminescence, 48 h; reference of the scale not given here;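 active = replicate mean above 50%; inconclusive = above 50% but judged a plate artefact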;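 note: 50 nL library stock added to about 25 µL; numbers are from one replicate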
Mtb hypoxia inh growth: second read-out of Mtb hypoxia inh, no call of its own (marks repeat the call); growth inhibition, %; measured here: M. tuberculosis growth (absorbance);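 0% = vehicle and 100% = reference antibiotic; read after six days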
Active calls of the source: *; u = inconclusive; x = not tested or not shown; & = joins results of further samples. Outcome played no part in choosing rows. About 4.1% of those tested had a hit in this group.

The first five entries as a preview:
SMILES	Sa RN4220 lethal	Mtb hypoxia inh	Mtb hypoxia inh growth	PrP UTR inh	Sa ugtP lethal	Autofluor counter	BJeLR viability
Cc1c(C(=O)N2CCCCC2)c(S(=O)(=O)NCc2ccccc2Cl)c(C)n1C	1.3	10	13	1	0	5536	3
Cc1ccc(S(=O)(=O)N/N=C2/CC(=O)CC(C)(C)C2)cc1[N+](=O)[O-]	x	x	x	-6	x	4739	3
CN(C(=O)c1cccc(NC(=O)Cc2ccc(NC(=O)C3CCCN(C(=O)C4CCCCC4)C3)cc2)c1)C1CCCCC1 (stereo not given)	3.0	-2	1	-12	-4	2883	x
O=C(Nc1ccccc1)c1[nH]ncc1[N+](=O)[O-]	6.6	7	8	-16	-10	4017	-2
COc1cc(/C=N/NS(=O)(=O)c2ccc3ccccc3c2)ccc1OCc1ccc(C(=O)O)cc1	x	x	x	48	x	4753	-18

The list itself, repeating the preview:
SMILES	Sa RN4220 lethal	Mtb hypoxia inh	Mtb hypoxia inh growth	PrP UTR inh	Sa ugtP lethal	Autofluor counter	BJeLR viability
Cc1c(C(=O)N2CCCCC2)c(S(=O)(=O)NCc2ccccc2Cl)c(C)n1C	1.3	10	13	1	0	5536	3
Cc1ccc(S(=O)(=O)N/N=C2/CC(=O)CC(C)(C)C2)cc1[N+](=O)[O-]	x	x	x	-6	x	4739	3
CN(C(=O)c1cccc(NC(=O)Cc2ccc(NC(=O)C3CCCN(C(=O)C4CCCCC4)C3)cc2)c1)C1CCCCC1 (stereo not given)	3.0	-2	1	-12	-4	2883	x
O=C(Nc1ccccc1)c1[nH]ncc1[N+](=O)[O-]	6.6	7	8	-16	-10	4017	-2
COc1cc(/C=N/NS(=O)(=O)c2ccc3ccccc3c2)ccc1OCc1ccc(C(=O)O)cc1	x	x	x	48	x	4753	-18
O=c1c2nnn(-c3ccccc3)c2ncn1CC=Cc1ccccc1	7.3	0	0	x	12	x	x
Cc1[nH]nc(N)c1N=Nc1ccc(Br)cc1	26	4	2	x	6	x	-1
Cc1ccc(S(=O)(=O)NCCc2c[nH]c3ccccc23)cc1	6.4	-3	-2	-15	2	2919	-4
c1ccc(N=C(c2cccs2)N2CCOCC2)cc1	5.0	x	x	-15	-1	4121	5
CN(C(=O)CSc1nnc(Cc2cccs2)n1C1CC1)C1CCS(=O)(=O)C1 (stereo not given)	2.7	-10	-14	-2	1	u	x
CCC(NC(=O)NNC(N)=S)(C(F)(F)F)C(F)(F)F	3.4	0	-5	-5	15	5996	7
Cc1ccc(CNC(=O)CN2CCCC(C)C2)cc1 (stereo not given)	0.4	18	19	-11	-1	10239	2
O=C(c1ccc2nc(-c3ccco3)c(-c3ccco3)nc2c1)N1CCC2(CC1)OCCO2	2.5	5	7	-11	6	3753	x
COc1cc(CN2CCN(Cc3ccc(SC)cc3)CC2)cc(OC)c1O	5.7	2	0	-7	7	4713	-2
COC(=O)c1[nH]c2ccccc2c1NC(=O)c1ccccc1F	-1.3	-5	0	x	-1	3858	3
O=C(NCc1ccccc1)C1=C[C@@H](c2ccc3c(c2)OCO3)C[C@@H](OCCCCO)O1	x	x	x	-12	x	3521	-9
CCOc1ccc(N(CC(=O)NC2CCC(C)CC2)S(=O)(=O)c2c(C)noc2C)cc1 (stereo not given)	2.1	-4	2	-2	5	4316	-4
Cc1cc(=O)oc2cc(OCC(=O)NN=Cc3ccccc3O)ccc12	4.1	-2	-4	x	-3	x	x
Cc1cccc(/C=N/NC(=O)NC23CC4CC(CC(C4)C2)C3)n1	x	x	x	-17	x	3880	11
COc1ccc(NC(=O)COc2ccccc2Cc2ccccc2)cc1S(=O)(=O)N1CCOCC1	-1.0	11	2	-14	-12	5568	x
O=C(C1=CC(c2ccc(Br)cc2)CC(OCCCCO)O1)N1CCN(Cc2ccc3c(c2)OCO3)CC1 (stereo not given)	5.9&5.5	-4&-1	-10&2	x	2&2	x	x
CSc1ccc(CN(C)C(=O)c2cc(Cl)c3c(c2)OCCO3)cc1	0.1	7	-1	-19	8	6052	3
CCN1C(=O)N(C)[C@@H](c2ccccc2)C(C(C)=O)=C1C	x	x	x	-3	x	3933	4
COc1ccccc1CNS(=O)(=O)c1ccc2c(c1)CC(C)N2C(=O)C1CCC1 (stereo not given)	3.5	-4	6	-11	-1	5386	7
COC(=O)C1=C(C)N(Cc2ccccc2)C(=O)NC1c1cccc(C(F)(F)F)c1 (stereo not given)	6.2	4	4	x	10	x	x
The listing continues.
SMILES	Sa RN4220 lethal	Mtb hypoxia inh	Mtb hypoxia inh growth	PrP UTR inh	Sa ugtP lethal	Autofluor counter	BJeLR viability
Cc1ccc(-c2csc(NC(=O)C3=COCCO3)n2)cc1C	-2.7	11	2	-71	-8	u	17
Cc1ccc(C(C)C)cc1OCC(=O)Nc1nnc(C2CC2)s1	3.6	14	8	-26	0	4002	x
O=S(=O)(c1ccc(Br)cc1)c1nc(-c2ccccc2)oc1NCc1cccnc1	0.3	-1	4	3	-10	2468	-3
COC(=O)C1(O)CC(CC(C)C)=NN1C(=O)c1ccccc1 (stereo not given)	-12	13	5	-16	-7	3405	8
O=C(NCC1CCCO1)NC1(C(F)(F)F)Oc2ccccc2O1 (stereo not given)	2.2	8	1	-11	4	3210	1
O=C(Nc1ccc(Br)cc1)c1cnccn1	3.0	10	6	-28	0	10264	-1
Cc1cc(Br)ccc1OCCOCCN1CCCC1	-0.3	22	8	-20	7	2803	1
CC1CC2C3CCC4=CC(=O)CCC4(C)C3CCC2(C)C1(O)C(=O)CO (stereo not given)	1.6	-3	8	-2	-2	4062	x
CC(C)c1ccc(OCC(=O)NC2=NCCS2)cc1	5.6	7	0	-14	5	3288	8
COc1ccc(CNC(=O)Nc2cc(C)cc(C)c2)cc1	0.8	12	9	-24	3	5642	21
CCN(CC)c1ccc(C=NN2CCCCCC2)cc1	1.2	22	25	-117	1	5225	x
COC(=O)c1csc2c(C(F)(F)F)cc(N3CCN(C(=O)Nc4ccccc4)CC3)nc12	3.5	4	-15	-11	4	6417	-8
CCCCCCCN1C/C=C\C(c2ccc(OC)cc2)N(Cc2ccc(F)cc2)C(=O)[C@H]1Cc1ccccc1 (stereo not given in full)	x	x	x	-8	x	3865	-1
CC(=NNC(=O)CCc1ccccc1)c1ccco1	-0.2	18	-1	x	4	x	x
N#CCCN(C(=O)COC(=O)c1cccc(S(=O)(=O)Nc2ccc([N+](=O)[O-])cc2)c1)c1ccccc1	-0.2	-1	7	-1	10	2017	13
CCOc1cc(CO)cc(Br)c1OCC(=O)Nc1ccccc1C	6.7	2	6	-17	-1	2155	-4
Cc1cc(NC(=O)NC(C)(C(F)(F)F)C(F)(F)F)no1	6.3	-6	5	-13	2	u	10
Cc1ccc(C)c(-c2csc(N)c2C(=O)OC(C)C)c1	-10	x	x	-7	15	2296	2
CCCNC(=O)CC(C)=NNC(=O)C(=O)Nc1ccccn1	1.1	8	-2	x	2	x	x
O=C(COC(=O)c1ccccc1Cl)NC(=O)NCc1ccccc1	4.7	5	-2	-17	2	2173	-10
CSCCC(NC(=O)c1ccccc1)C(=O)Nc1ccncc1 (stereo not given)	6.9	0	-5	-10	7	2923	x
CCN(CC)C(=O)Oc1ccc(Cl)c2ccccc12	1.4	8	6	-12	26	10766	-1
O=C(O)c1ccc2cccc(Cl)c2c1O	0.6	x	x	-14	-5	5790	-8
CCCn1c(SCC(=O)N2CCCCC2)nc2c1c(=O)n(C)c(=O)n2C	4.2	21	6	-10	7	4393	-1
Cc1cc(=O)oc(C)c1C(=O)NCC(C)C	5.3	2	-3	-12	10	10695	1
The results go on.
SMILES	Sa RN4220 lethal	Mtb hypoxia inh	Mtb hypoxia inh growth	PrP UTR inh	Sa ugtP lethal	Autofluor counter	BJeLR viability
CC(=O)c1ccc(N2CCN(C(=O)Nc3cccc(F)c3)CC2)cc1	4.9	9	12	9	1	3423	8
Cc1cc(Oc2ccccc2)nc(N2CCOCC2)n1	2.6	x	x	-16	6	4363	0
CCOCCCn1c(SCC(=O)N2CCOCC2)nc2ccccc2c1=O	-1.6	4	7	-25	9	4999	6
C=CCNC(=O)NC(=O)COC(=O)c1cccnc1SC	27	3	2	2	23	2336	-10
CC(C)(C)OC(=O)NCCC(=O)NN=Cc1cccc2cccnc12	0.1	0	0	x	4	x	x
Cc1c(C(=O)N2CCCC2)sc(NC(=O)c2ccco2)c1C#N	17	2	6	-10	17	2373	-10
Cc1ccc(CC(CC(=O)Nc2cccc(C(F)(F)F)c2)C(=O)O)cc1 (stereo not given)	9.6	13	1	-1	1	2397	-4
Cc1c([N+](=O)[O-])cc(C(=O)Nc2ccc(NC(=O)c3ccco3)cc2)cc1[N+](=O)[O-]	3.6	4	0	-9	3	5331	5
Cc1ccc(C2=Nc3ccccc3N=C(c3ccc([N+](=O)[O-])cc3)C2)c(O)c1	2.0	9	3	-79	-5	2141	-1
CC(C)(C)N(Cc1ccccc1)C(=O)COC(=O)C1CC(=O)N(Cc2ccccc2)C1 (stereo not given)	5.1	-11	3	-49	1	u	x
O=C(NCc1ccc2c(c1)OCO2)C12CC3CC(CC(C3)C1)C2	5.7	15	13	-33	-3	21340*	-5
CCOC(=O)C(C)Sc1cc(CS(=O)(=O)c2ccccc2)nc(-c2ccccc2)n1 (stereo not given)	1.2	10	12	-17	2	20917*	1
COc1ccccc1N(CC(=O)NC1CCCCC1)C(=O)CCC(=O)Nc1nccs1	2.4	8	6	-15	-5	3723	4
O=S(=O)(C=C(c1ccccc1)c1ccccc1)c1ccccc1	13	x	x	-10	8	2572	-8
O=C1NCC(Cc2ccc(O)cc2)N(CCc2cccc(F)c2)C1=O (stereo not given)	1.6	10	11	x	1	x	x
COc1ccc(/C=N/NC(=O)c2cccc([N+](=O)[O-])c2)cc1OS(=O)(=O)c1ccccc1	x	x	x	-9	x	3978	5
Cc1c(C#N)c2ccccc2n1CC(=O)N1CCCc2ccccc21	-1.8	x	x	-13	-4	5898	-11
O=C1c2ccccc2C(=O)N1CC1c2ccccc2CCN1C(=O)C1CCCCC1 (stereo not given)	1.3	6	10	-12	-3	9307	7
Cc1cc(OC(=O)c2ccc(S(=O)(=O)N(C)C)cc2)cc(=O)o1	7.8	7	6	1	1	2863	6
Cn1nnnc1SCC(=O)Nc1cc(C(C)(C)C)nn1-c1ccccc1	4.2	x	x	-5	4	4905	-10
N#Cc1c(NC(=O)CSc2ncnc3c2cnn3-c2ccccc2Cl)sc2c1CCCC2	5.8	2	4	1	-13	2809	-2
O=C(Nc1nc2ccc(Cl)cc2s1)C1CCCO1 (stereo not given)	10	13	8	-94	-8	x	10
CCCCN(C(=N)N1CCCCC1)c1nc(C)c([N+](=O)[O-])c(=O)[nH]1	4.6	-1	-6	-7	4	9177	8
CCOC(=O)N1CCN(C(=O)C2CCN(Cc3ccc(O)c(OCC)c3)CC2)CC1	5.4	4	0	-18	12	4817	-6
COc1ccc2c(=O)cc(-c3ccccc3)n(C)c2c1	10	x	x	0	1	3515	x
The listing continues.
SMILES	Sa RN4220 lethal	Mtb hypoxia inh	Mtb hypoxia inh growth	PrP UTR inh	Sa ugtP lethal	Autofluor counter	BJeLR viability
Cc1ccccc1CN(C)C(C)C(=O)NCc1ccccc1 (stereo not given)	5.1	14	6	-10	5	4132	-1
O=C(O)C1=C[C@H](c2ccc(F)cc2)C[C@H](OCc2ccc(CO)cc2)O1	x	x	x	-10	x	3193	10
CCOc1ccc(CCNC(=O)COC(=O)c2nn(C)c(=O)c3ccccc23)cc1OCC	1.9	3	11	-71	5	4354	0
CCCCn1c(SCC(=O)Nc2nnc(C(C)C)s2)nc2c1c(=O)n(C)c(=O)n2C	6.5	9	4	0	-2	20755*	0
Cn1c(=O)[nH]c(=O)c2c1nc(CN1CCN(c3ccc(F)cc3)CC1)n2CCN1CCOCC1	3.5	-7	7	-33	2	4831	-1
Cc1c(C(C)C)c(=O)n(-c2ccc(S(=O)(=O)NC(C)C)cc2)n1C	6.5	3	-7	-27	10	4661	1
O=c1cnn(Cc2ccc(F)cc2)c2ccccc12	2.4	2	5	-20	-1	3898	5
COc1ccc(S(=O)(=O)Nc2ccc(NC(C)=O)cc2)cc1Cl	4.2	13	7	-30	5	4604	-4
COc1ccc(-c2noc(C(=O)NCc3ccc(F)cc3)n2)cc1OC	3.2	7	14	12	-3	1968	6
COc1ccc(C(=O)NCC(=O)OCC(=O)N2CCCc3ccccc32)cc1	0.0	6	12	-23	4	2405	-2

Screening results (PubChem)
